Screens as filed in PubChem BioAssay.
Measles inh: inhibitors of measles virus growth in infected cells. infected Vero cells, GFP fluorescence, 64 h; stronger effect = lower value. z-score (test concentration not listed). actives 0.1% (n = 33,000);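 active = z-score under -3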;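 also: score is relative to mean and SD of the compound wells of a plate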
* = called active by the depositor. This is a subset. The share of hits here may be higher or lower than overall.

SMILES	Measles inh
CC(C)(C)c1ccc(-c2nnc(N)s2)cc1	-0.68
COc1ccc(C(=O)Nc2ccc3oc(-c4ccc(Br)cc4)nc3c2)cc1OC	-0.31
O=C(NC1CCCCCC1)c1ccc(N2CCCCCC2)c([N+](=O)[O-])c1	1.8
Cc1ccc(C2=NNC3(CC4CC3C3CCCC43)S2)cc1 (configuration not stated)	-0.25
Cc1ccc(C2=NN(S(=O)(=O)c3ccccc3)C(c3ccccc3F)C2)cc1 (configuration not stated)	0.54
COc1ccc(N(C)C(=O)c2cc3cc4cc(OC)ccc4nc3s2)c(OC)c1	-0.27
O=C(Cn1c2ccccc2c(=O)c2ccccc21)Nc1cccc(Cl)c1	-0.64
CCN(CCNS(=O)(=O)c1ccc2c(c1)CCN2C(C)=O)c1ccccc1	-0.15
CCOc1ccc2nc(SCC(=O)Nc3ccc(Br)cc3)sc2c1	-0.19
COc1ccc(N=c2scc(-c3ccc(Br)cc3)n2CCO)cc1	-1.2
COc1ccc(C(C)=O)cc1N1C(=O)C2C3c4ccccc4C(C)(c4ccccc43)C2C1=O (configuration not stated)	0.8
CCOc1ccc(NC(=O)Cn2cnc3sc4c(c3c2=O)CCC4)cc1	-0.7
COc1ccc(S(=O)(=O)N2CCN(S(=O)(=O)c3ccc(OC)c(C)c3)C(C)C2)cc1C (configuration not stated)	0.31
CCOC(=O)C1=C(C)NC2=C(C(=O)CC(c3ccc(Cl)cc3)C2)C1c1ccc(OCC)cc1 (configuration not stated)	-1.2
COC(=O)c1c(NC(=O)c2ccc(S(=O)(=O)N3CCCc4ccccc43)cc2)sc2c1CC(C)(C)NC2(C)C	-0.01
COCCNC(=O)c1cc2cc3ccc(C)cc3nc2o1	-0.98
Cc1cccn2c(=O)c3cc(C(=O)NC4CCCC4)c(=N)n(CCc4ccccc4)c3nc12	-0.13
CC(C)(CC(N)=O)CC1=NS(=O)(=O)c2ccccc2N1	1.1
CCOC(=O)c1sc(N2C(=O)C(O)=C(C(=O)c3ccco3)C2c2ccc(C(C)C)cc2)nc1C (configuration not stated)	-0.58
COCCCNC(=O)c1oc(=O)c2ccccc2c1-c1ccc(C)cc1	1.6
COc1ccc(Nc2ncnc3ccc(Br)cc23)cc1OC	1.6
O=C(Oc1ccc(I)cc1)C(c1ccccc1)c1ccccc1	0.07
Cc1cc(C)cc(N2C(=O)NC3CC2(C)Oc2ccc(Cl)cc23)c1 (configuration not stated)	1.5
N#CCSc1nc2c(sc3ccccc32)c(=O)n1CCc1c[nH]c2ccccc12	0.25
CCC(C)N1C(=O)c2ccccc2C1C(=O)NC1CCCCCC1 (configuration not stated)	-0.25
CCCCCn1c2ccccc2c2nc3ccccc3nc21	-1.1
Cc1ccc(-n2ncc3c(=O)[nH]c(SCC(C)C)nc32)cc1C	0.49
COc1ccc(COC(=O)C2=C(C)NC3=C(C(=O)CC(C)(C)C3)C2c2ccsc2)cc1 (configuration not stated)	-0.39
COC(=O)C1=CN(Cc2ccc(OC)cc2)C=C(C(=O)OC)C1c1ccccc1Br	0
Cc1ccc(C2NCCS2)cc1 (configuration not stated)	-0.82
CCCCOC(=O)c1c(C)oc2ccc(NS(=O)(=O)c3ccc4c5c(cccc35)C(=O)N4)cc12	-1.1
COCCn1c(=O)[nH]c2cc(C(=O)Nc3ccc(Oc4ccc(Cl)cc4)cc3)ccc2c1=O	0.27
CN1CCOCCOc2ccccc2OCCOCC1	1.6
CCN(CC)c1ccc(C2C3=C(CC(C)(C)CC3=O)Nc3nc(SC)[nH]c(=O)c32)cc1 (configuration not stated)	1.7
CCOc1ccc(/C(O)=C2\C(=O)C(=O)N(CCN(C)C)C2c2ccc(F)cc2)c(C)c1 (configuration not stated)	-0.84
CCC1CCCCN1C(=O)c1nn2c(c1Cl)NC(c1ccccc1)CC2C(F)(F)F (configuration not stated)	-0.65
O=C(c1cc2c(=O)n3ccccc3nc2s1)N1CCN(c2ccccc2)CC1	-0.69
CC(C)CNC(=O)CCNC(=O)c1ccc(C(C)(C)C)cc1	-0.3
COC(=O)c1c(NC(=O)c2nc3ncccn3n2)sc2c1CCC2	-0.3
C=CCOC(=O)C1=C(C)NC2=C(C(=O)CC(C)(C)C2)C1c1ccc(O)c(OC)c1 (configuration not stated)	0.39
CCOc1ccc(NC(=O)COc2cccc(C)c2)c([N+](=O)[O-])c1	0.36
Cc1sc2ncn(CC(=O)N3CCN(c4ccc(F)cc4)CC3)c(=O)c2c1S(=O)(=O)N1CCCCC1	0.17
CCOC(=O)c1c(NC(=O)CSc2nnc3scc(-c4ccccc4)n23)sc2c1CCC(C)C2 (configuration not stated)	0.21
Cc1sc2[nH]c(=O)n(-c3ccc(Cl)cc3)c(=O)c2c1C	1.5
CN(C)CCCN1C(=O)C(=O)/C(=C(/O)c2ccc(F)cc2)C1c1ccco1 (configuration not stated)	1.4
CCC(=O)NCCn1c(C)cc2ccccc21	1.4
CCc1cc(=O)oc2cc3occ(-c4ccc(OC)c(F)c4)c3cc12	0.46
O=C(C1CCC1)N1CCc2cc(S(=O)(=O)N3CCN(c4ccccc4F)CC3)ccc21	1.4
O=C(CSc1nc2ccsc2c(=O)n1CCc1ccc(Cl)cc1)NC1CCCC1	-1.3
CC(C)CC(C(=O)Nc1ccc2c(c1)OCCO2)N1C(=O)c2ccccc2C1=O (configuration not stated)	-0.3
c1ccc(-c2ccc(-c3ccccn3)nn2)nc1	0
COc1cc(OC)cc(-c2nnc(NC(=O)c3ccc(S(=O)(=O)N4CCCC4)cc3)o2)c1	-0.94
CC(C)OCCCNC(=O)C1CCN(c2nc3ccccc3o2)CC1	0.26
CN(Cc1ccccc1)C(=O)CN(Cc1ccc(Br)cc1)S(=O)(=O)c1ccccc1	-1
Cc1c(C(=O)Nc2ccc(Cl)cn2)sc2ncn(CC(=O)N3CCCCC3)c(=O)c12	-0.23
CCNC(=O)c1c(NC(=O)c2ccccc2)sc2c1CCC(C(C)(C)C)C2 (configuration not stated)	-0.52
C=CCc1c(C)nc(SC)nc1Nc1ccc(C(=O)O)cc1	0.87
CCOC(=O)c1sc(NC(=O)c2cncc(Br)c2)nc1C	-0.2
O=C(c1ccc2c(=O)n(-c3ccccc3)c(=O)[nH]c2c1)N1CCN(c2ccc(F)cc2)CC1	1.3
COc1ccccc1NC(=O)CSc1nc2c(sc(=S)n2CC2CCCO2)c(=O)n1-c1ccc(F)cc1 (configuration not stated)	-0.92
The list goes on.
SMILES	Measles inh
CC1Cc2nc(SCC(=O)Nc3ccccc3)n(C)c(=O)c2S1 (configuration not stated)	-0.51
COc1cc([N+](=O)[O-])ccc1N1C(=O)c2cccc([N+](=O)[O-])c2C1=O	1.3
COc1cccc(N2CCN(C(=O)CCS(=O)(=O)c3cccc4nsnc34)CC2)c1	-0.53
CC(C)CC(Nc1ncnc2ccc(Br)cc12)C(=O)O (configuration not stated)	-1.4
O=C(CCNS(=O)(=O)c1ccc(Br)s1)NCc1cccs1	0.8
CC1(C)Cc2c(sc(NC(=O)c3ccc(S(=O)(=O)N4CCCc5ccccc54)cc3)c2C(N)=O)C(C)(C)N1	-0.56
C=CCNC(=O)Nc1ccc2snnc2c1	-0.75
Cc1cccc2sc(=NC(=O)c3ccc(S(=O)(=O)N4CCCC(C)C4)cc3)n(C)c12 (configuration not stated)	1.1
COc1ccc(-n2ncc3c(Nc4ccc(F)cc4)ncnc32)cc1	1.4
O=c1c2cc(Br)ccc2[nH]c(=S)n1Cc1ccccc1Cl	-0.13
O=[N+]([O-])c1ccc(C2=Nn3c(nnc3-c3ccccc3)SC2)cc1	-0.73
O=C(O)C1C(C(=O)Nc2cccc(Cl)c2)C2C=CC1C21CC1 (configuration not stated)	-1.2
COc1cccc(C(=O)Nc2c3c(nn2-c2ccc(C)cc2)CS(=O)C3)c1OC (configuration not stated)	0.37
CCCCNC(=O)CNC(=O)Cn1ccc2ccccc2c1=O	0.13
CCOCCOC(=O)c1[nH]c2c(c1C)C(=O)CC(c1ccccc1Cl)C2 (configuration not stated)	0.47
CC1=C(C(=O)N2CCOCC2)C(c2ccccc2Cl)C2=C(CCCC2=O)N1 (configuration not stated)	-0.76
O=c1c2ccccc2c2ccccc2c(=O)n1-c1ccccc1I	-0.45
CC(=O)N1CCc2cc(S(=O)(=O)NC(C)(C)C)ccc21	-1.6
Cc1nc2nc(SCC(=O)O)nn2c(C)c1Cc1ccccc1Cl	-0.04
COc1ccc(OC)c(C(=O)CC2(O)C(=O)N(C)c3ccccc32)c1 (configuration not stated)	-0.17
Cc1cc(=O)[nH]c(SCCOc2ccc(C)c(C)c2)n1	0.18
COc1ccc2nc(NC(=O)c3sc4nc(C)[nH]c(=O)c4c3C)sc2c1	-0.62
CCOC(=O)c1c(NC(C)=O)sc2c1CCC(C=NC(C)(C)C)=C2Sc1ccccc1	-1.2
CCOc1ccc(N(C(C)C(=O)Nc2cccc(Cl)c2C)S(C)(=O)=O)cc1 (configuration not stated)	-0.59
O=C(CSc1ncn[nH]1)n1c2ccccc2c2ccccc21	-0.58
COC(=O)c1cccc(NC(=O)CCCOc2cccc(C)c2)c1	-0.44
CCOC(=O)c1c(NC(=O)c2ccccc2NS(=O)(=O)c2cc([N+](=O)[O-])ccc2Cl)sc2c1CCC2	1.6
CC1=C(C(=O)OCc2ccccc2)C(c2ccc(O)cc2)C2=C(CCCC2=O)N1 (configuration not stated)	-0.92
Oc1cccc2nonc12	-0.13
C1=C(c2ccccc2)SC=C(c2ccccc2)S1	-0.27
Cc1ccc(-c2nnc(Nc3ccc(Cl)cc3)c3ccccc23)cc1S(=O)(=O)N1CCOCC1	0.46
COc1ccc2nc(NC(=O)c3[nH]c(C)c(C(C)=O)c3C)sc2c1	-1.1
COc1ccc(C2C=C(c3ccc(C)cc3)Nc3nc4ccccc4n32)cc1 (configuration not stated)	-0.27
Cc1ccc(C2C(N3C(=O)c4ccc([N+](=O)[O-])cc4C3=O)C(=O)N2c2ccc(C)c(F)c2)cc1 (configuration not stated)	0.46
CC1(c2ccccc2)CC(C)(C)N(C(=O)C(F)(F)F)c2ccccc21 (configuration not stated)	-0.63
CC(=O)NC1=NN(C(C)=O)C(c2ccc3c(c2)OCO3)S1 (configuration not stated)	-0.09
COCCN1C(=O)C(=O)/C(=C(/O)c2ccccc2)C1c1ccc2c(c1)OCO2 (configuration not stated)	1.2
CN1C(=O)CC(N2CCN(C34CC5CC(CC(C5)C3)C4)CC2)C1=O (configuration not stated)	-1.9
O=C(O)C12CC3CC(C(=O)O)(C1)CC(C(=O)O)(C3)C2	-1.2
CCOc1ccc(S(=O)(=O)NC(C)(C)C)cc1-c1nc2c(C(C)(C)C)nn(C)c2c(=O)[nH]1	-0.8
CCOC(=O)C1=C(C)NC2=C(C(=O)CC(c3cccs3)C2)C1c1ccc(CC)s1 (configuration not stated)	-0.66
CC1=C(C(=O)OCc2ccccc2)C(c2cccs2)C2=C(CCCC2=O)N1 (configuration not stated)	1.6
Cc1ccccc1Cn1c(=O)n(-c2ccc(F)cc2)c(=O)c2sccc21	-0.34
COc1ccc(-c2cc(C(F)(F)F)n3nc(C(=O)NCC4CCCO4)cc3n2)cc1 (configuration not stated)	-0.06
CC(CC(=O)C1C(C)C=CCC1(C)C)Nc1ccccc1 (configuration not stated)	-0.56
CCCOC(=O)C1=C(C)NC2=C(C(=O)CC(c3cccs3)C2)C1c1ccc([N+](=O)[O-])cc1 (configuration not stated)	-0.16
COc1ccc(C2Oc3c(OC)cccc3C3CC(c4ccco4)=NN32)cc1OC (configuration not stated)	2.1
Cc1ccc(N2C(=O)c3ccc(-c4ccc5c(c4)C(=O)N(c4ccc(C)cc4C(=O)O)C5=O)cc3C2=O)c(C(=O)O)c1	-0.15
CC(=O)Nc1ccc(-n2c(C=Cc3cccc4ccccc34)nc3ccccc3c2=O)cc1	-0.61
COc1ccc(C2NC(=S)NC(C)=C2C(=O)Nc2ccccc2OC)cc1 (configuration not stated)	0.55
CCOc1ccc(-c2nnc(Nc3ccc(OC)c(C(=O)N4CCCCC4)c3)c3ccccc23)cc1	-0.93
O=C(CC1Nc2ccccc2NC1=O)Nc1ccc(F)cc1 (configuration not stated)	-0.23
CCN(CC)c1cc(-n2nc(-c3ccccc3)cc2-c2ccccc2)ncn1	0.06
CCN1CCN(CCCNC(=O)C2CCC(Cn3c(=S)[nH]c4ccccc4c3=O)CC2)CC1 (configuration not stated)	-1.1
Cc1ccc(-c2ccc(CCC(=O)O)n2-c2cccc(Br)c2)cc1	-0.69
COc1cc(C(=S)N2CCOCC2)cc(OC)c1OC	-1.3

In the list so far, 15 contain fluorine.
SMILES	Measles inh
Cc1ccc(C2=NN(S(=O)(=O)c3ccccc3)C(c3ccccc3F)C2)cc1 (configuration not stated)	0.54
CCOc1ccc(/C(O)=C2\C(=O)C(=O)N(CCN(C)C)C2c2ccc(F)cc2)c(C)c1 (configuration not stated)	-0.84
CCC1CCCCN1C(=O)c1nn2c(c1Cl)NC(c1ccccc1)CC2C(F)(F)F (configuration not stated)	-0.65
Cc1sc2ncn(CC(=O)N3CCN(c4ccc(F)cc4)CC3)c(=O)c2c1S(=O)(=O)N1CCCCC1	0.17
CN(C)CCCN1C(=O)C(=O)/C(=C(/O)c2ccc(F)cc2)C1c1ccco1 (configuration not stated)	1.4
CCc1cc(=O)oc2cc3occ(-c4ccc(OC)c(F)c4)c3cc12	0.46
O=C(C1CCC1)N1CCc2cc(S(=O)(=O)N3CCN(c4ccccc4F)CC3)ccc21	1.4
O=C(c1ccc2c(=O)n(-c3ccccc3)c(=O)[nH]c2c1)N1CCN(c2ccc(F)cc2)CC1	1.3
COc1ccccc1NC(=O)CSc1nc2c(sc(=S)n2CC2CCCO2)c(=O)n1-c1ccc(F)cc1 (configuration not stated)	-0.92
COc1ccc(-n2ncc3c(Nc4ccc(F)cc4)ncnc32)cc1	1.4
Cc1ccc(C2C(N3C(=O)c4ccc([N+](=O)[O-])cc4C3=O)C(=O)N2c2ccc(C)c(F)c2)cc1 (configuration not stated)	0.46
CC1(c2ccccc2)CC(C)(C)N(C(=O)C(F)(F)F)c2ccccc21 (configuration not stated)	-0.63
Cc1ccccc1Cn1c(=O)n(-c2ccc(F)cc2)c(=O)c2sccc21	-0.34
COc1ccc(-c2cc(C(F)(F)F)n3nc(C(=O)NCC4CCCO4)cc3n2)cc1 (configuration not stated)	-0.06
O=C(CC1Nc2ccccc2NC1=O)Nc1ccc(F)cc1 (configuration not stated)	-0.23
